# Assay outcomes as filed in PubChem BioAssay.
# D2 PAM – Beta-Arrestin HTS for Positive Allosteric Modulators of the Human D2 Dopamine Receptor: Potentiators. DiscoveRx D2 beta-arrestin cells, luminescence, 90 min; 100% = 57 uM dopamine signal. potentiation, % (no concentration beside the values). 360,000 tested, 0.23% active. AID 624464, 2012; active = potentiation of 50% or more; inconclusive = 30% to 50%; inactive = 30% or less;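 also: compound concentration not given in the record; tested on top of an EC20 dose of dopamine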
# Target sequence (P14416 whole entry, looked up): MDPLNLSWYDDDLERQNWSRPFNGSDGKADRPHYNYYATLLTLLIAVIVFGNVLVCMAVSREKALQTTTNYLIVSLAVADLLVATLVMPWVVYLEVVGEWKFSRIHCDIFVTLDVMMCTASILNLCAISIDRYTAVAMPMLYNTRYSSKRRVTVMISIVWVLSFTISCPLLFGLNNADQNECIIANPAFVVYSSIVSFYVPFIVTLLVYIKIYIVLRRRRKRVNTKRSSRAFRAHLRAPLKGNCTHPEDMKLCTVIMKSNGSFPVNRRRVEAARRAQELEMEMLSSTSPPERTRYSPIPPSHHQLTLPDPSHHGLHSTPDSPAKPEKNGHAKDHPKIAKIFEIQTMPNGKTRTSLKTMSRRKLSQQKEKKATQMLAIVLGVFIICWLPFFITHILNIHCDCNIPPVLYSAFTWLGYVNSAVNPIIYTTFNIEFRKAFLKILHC
#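 PathHunter D2 cells, attached overnight at 37 deg C, received compound in DMSO plus dopamine at EC20 (50 nM final) for 90 min at 37 deg C. Beta-arrestin recruitment was read as luminescence after 1 h with detection reagent at ambient temperature.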
# gsp antagonist – qHTS for Antagonists of gsp, the Etiologic Mutation Responsible for Fibrous Dysplasia/McCune-Albright Syndrome: qHTS | gsp-mutant cells, cAMP HTRF, 30 min; control for the full effect not named in the record | Potency, µM (titrated, usually from 76.9 µM), for the others: at the top dose activity change, negative = inhibition, hits mostly inhibitors | 340,000 tested, 0.4% active; active = falling curve of any shape with a large fitted effect; inconclusive = falling curve, mostly with a smaller effect; inactive = flat or rising curve; cell line not stated here;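 also: intracellular cAMP measured with PDE inhibitor Ro 20-1724 present during compound exposure; potency is read from the fitted curve at half-maximal effect; % is scaled to controls: 0 for no effect and ±100 for the full control effect; nearly all actives have a fitted effect of over 65% in size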
#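 Cells, 2000/well, grown 16–24 h in DMEM 10% FBS with 0.5 mg/ml G418, then compounds plus […] (300 uM addition stock), 30 min at 37C. cAMP read by HTRF (cAMP-d2 and anti-cAMP antibody-K in lysis buffer) after 30 min RT.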
# CtBP-E1A inh – qHTS Assay for Inhibitors of the CtBP/E1A Interaction; activity change, % (concentration not given with the values); AlphaScreen GST-E1A/His-CtBP binding, 1536-well; active compounds read low; control for the full effect not named in the record; 340,000 tested, 0.49% active; AID 651724, 2012; in the data active means activity change below about -65%; inconclusive means about -30% to -65%; inactive means above about -30%; also: % is scaled to controls: 0 for no effect and ±100 for the full control effect
#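 Protein mix (5X: 125 nM each GST-E1A, His-CtBP) was incubated with pinned compound 2 h at 37 deg C in dark, in 50 mM Tris pH 8.0 buffer with 300 mM NaCl. Glutathione donor and nickel acceptor beads followed; AlphaScreen signal read after 1 h.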
# D2 agonist – Beta-Arrestin HTS for Positive Allosteric Modulators of the Human D2 Dopamine Receptor: Agonists. activation, % (test concentration not listed). 360,000 tested, 0.084% active. DiscoveRx PathHunter D2 beta-arrestin, luminescence, 90 min; 100% = 57 uM dopamine signal. D(2) dopamine receptor (Homo sapiens), P14416; in the data active = activation above about 40%; inconclusive = about 15% to 40%; inactive = below about 15%; also: compound concentration not given in the record; the text of the record calls up to 30% inactive
#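 Agonist mode: compounds alone added to overnight-plated D2 PathHunter cells for 90 min at 37 C, with 57 uM final dopamine (EC100) defining full response. Beta-arrestin recruitment detected by chemiluminescent reagent, read after 1 h at ambient temperature.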
# Six1-Eya2 blk – qHTS Assay for Inhibitors of the Six1/Eya2 Interaction. AlphaScreen GST-Six1/His-Eya2 binding, biochemical; active compounds read low; control for the full effect not named in the record. Homeobox protein SIX1 (Homo sapiens) + Protein phosphatase EYA2 (Homo sapiens), …. 360,000 tested, 0.56% active. activity change, % (concentration not given with the values); in the data active = activity change below about -65%; inconclusive = about -30% to -65%; inactive = above about -30%; also: % is scaled to controls: 0 for no effect and ±100 for the full control effect
#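 AlphaScreen luminescence read after one hour at 37 °C in darkness. Pin-transferred compounds met GST-Six1 and His-Eya2 protein (5X stock 250 nM/500 nM) plus glutathione donor and Ni-chelate acceptor beads (5X, 50 ug/mL).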
# gsp ag – qHTS for Agonist of gsp, the Etiologic Mutation Responsible for Fibrous Dysplasia/McCune-Albright Syndrome: qHTS. Potency, µM (top dose mostly 76.9 µM), for inactives: at the highest dose activation (cAMP increase), hits mostly activators. gsp mutant cells, cAMP HTRF, 30 min; control for the full effect not named in the record. 340,000 tested, 0.13% active; active = well fitted activation curve with a large enough effect; inconclusive = small, poorly fitted or top-dose-only effect, or another doubt; inactive = no such curve, though single readings can be large or run the other way; cell line not stated here;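 also: phosphodiesterase inhibitor Ro 20-1724 added with compounds to block cAMP breakdown; potency is read from the fitted curve at half-maximal effect; nearly all actives have a fitted effect of over 60% in size; about a fifth of the inactives were tested at one dose only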
#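 Cells in DMEM/10% FBS with G418 were pretreated with compounds in DMSO plus […] (300 uM stock) for 30 min at 37C. cAMP was measured by HTRF (cAMP-d2 plus anti-cAMP antibody-K) after 30 min at room temperature.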
# * marks the source's active call; other numbers are inactive results; ? = inconclusive; nt = no result given; [ ] = remark or other dose.
D2 PAM | gsp antagonist | CtBP-E1A inh | D2 agonist | compound | Six1-Eya2 blk | gsp ag
-3 | 3% | -1 | -4.1 | O=C(NCc1ccco1)NCC(F)(F)F | -2 | -8%
-5 | 8% | nt | -4.1 | CC[C@H](C)[C@H](NC(=O)c1ccccc1)C(=O)NC(CC(=O)O)c1ccc(F)cc1 (stereo not given in full) | 0 | -16%
-15 | nt | 3 | -5.6 | CCc1nc2ccc(C(=O)NCc3cccs3)cn2c1N(CC)CCN(C)C | 0 | nt
-10 | 0% | -20 | -2.8 | C[C@H](NC(=O)c1nc[nH]c1C(=O)N(C)Cc1ccccc1)c1ccccc1 | 7 | -2%
-12 | 3% | -15 | -3.7 | COc1cc2c(cc1OC)C(C(=O)Nc1ccccc1N1CCN(C)CC1)C1c3ccccc3CCN1C2=O (stereo not given) | -13 | 7%[15.4 µM]
2 | 1% | -1 | 1.4 | O=C(NCCc1ccccc1)c1cc(=O)[nH]c2ccccc12 | 3 | 11%
-6 | 11% | 8 | -3.1 | O=C(O)CSc1nnc(-c2ccc(S(=O)(=O)N3CCCC3)cc2)n1Cc1ccco1 | 8 | -2%
-1 | -14% | 9 | -1.1 | CCNc1nc(NC(C)C)nc(N(C#N)CCOc2ccc(Cl)cc2Cl)n1 | 4 | -22%
-1 | 8% | -4 | -3.1 | Cc1cc(C)n(CCCC(=O)O)n1 | -1 | -9%[15.4 µM]
-2 | 3% | 8 | 0.8 | C=CCn1c(SCC(=O)Nc2ccc3c(c2)OCO3)nc2ccccc2c1=O | -5 | -5%
16 | -8% | 8 | 0.0 | Fc1ccc2nc3c(nc2c1)CCCC3 | 2 | 19%
-5 | -1% | -11 | -0.8 | Cc1ccccc1C(=O)NC(=S)Nc1ccc(S(=O)(=O)N(C)c2ccccc2)cc1 | -8 | 22%
-20 | -2% | 13 | -3.9 | COC(C(=O)Nc1ccnn1C1CCN(Cc2nccs2)CC1)c1ccccc1 (stereo not given) | 6 | -2%
-2 | 10% | 13 | 0.2 | CC(=O)NC(CC(=O)NC1CCCCC1)c1ccccc1 (stereo not given) | 5 | -22%
-9 | 10% | -2 | -4.1 | Cc1ccc(C)c(NC(=S)NNC(=O)c2ccco2)c1 | 0 | -42%[inhibitor]
-8 | 3% | 9 | -0.6 | COc1ccccc1/C=N/n1c(C)nnc1-n1nc(C)cc1C | 4 | -16%
-9 | -2% | nt | 1.7 | CC(Oc1cccc(Cl)c1)C(=O)Nc1ccncc1 (stereo not given) | 1 | 16%
3 | ? | 0 | 6.6 | COc1ccccc1/C=C1/SC(=S)N(CCC(=O)Nc2cccnc2)C1=O | -1 | -26%
-19 | -4% | 3 | 14 | NC(=O)C1CCN(c2c([N+](=O)[O-])cc(C(F)(F)F)cc2[N+](=O)[O-])CC1 | 3 | 4%[15.4 µM]
2 | 13% | 9 | -2.5 | CCn1c(C(=O)O)c(CC(=O)Nc2ccc(Br)cc2C)c2ccccc21 | 0 | -3%

# Arranged by the number under D2 PAM (falling): some entries from above.
D2 PAM | gsp antagonist | CtBP-E1A inh | D2 agonist | compound | Six1-Eya2 blk | gsp ag
16 | -8% | 8 | 0.0 | Fc1ccc2nc3c(nc2c1)CCCC3 | 2 | 19%
3 | ? | 0 | 6.6 | COc1ccccc1/C=C1/SC(=S)N(CCC(=O)Nc2cccnc2)C1=O | -1 | -26%
2 | 13% | 9 | -2.5 | CCn1c(C(=O)O)c(CC(=O)Nc2ccc(Br)cc2C)c2ccccc21 | 0 | -3%
-5 | -1% | -11 | -0.8 | Cc1ccccc1C(=O)NC(=S)Nc1ccc(S(=O)(=O)N(C)c2ccccc2)cc1 | -8 | 22%
-9 | 10% | -2 | -4.1 | Cc1ccc(C)c(NC(=S)NNC(=O)c2ccco2)c1 | 0 | -42%[inhibitor]
-20 | -2% | 13 | -3.9 | COC(C(=O)Nc1ccnn1C1CCN(Cc2nccs2)CC1)c1ccccc1 (stereo not given) | 6 | -2%

# Next part
D2 PAM | gsp antagonist | CtBP-E1A inh | D2 agonist | compound | Six1-Eya2 blk | gsp ag
-11 | ? | nt | -5.3 | CC(C)c1ccc(/C=C2\SC(=S)N(CCC(=O)N3CCCCC3CCO)C2=O)cc1 (stereo not given) | -13 | -4%
-4 | 11% | nt | -4.3 | CCC(C)NC(=O)CNC(=O)c1nn(-c2ccc(OC)cc2OC)c(=O)c2ccccc12 (stereo not given) | 2 | ?
9 | 5% | -1 | -2.9 | COc1ccccc1OCCNC(=O)C1CC(=O)N(c2ccc3c(c2)OCCO3)C1 (stereo not given) | -2 | -6%
0 | 3% | -11 | -2.4 | O=C1CN(C(=O)CSc2nnnn2C2CC2)c2ccccc2N1 | -8 | -7%
5 | 6% | -1 | 0.6 | O=C(Nc1nc2ccccc2[nH]1)C1CC(=O)N(c2ccc3c(c2)OCCO3)C1 (stereo not given) | -10 | -22%
2 | -14% | -12 | -0.9 | CCN1C(=O)c2cccc3c(NC(=O)c4ccc(OC)c(OC)c4)ccc1c23 | -17 | ?
-4 | 10% | -9 | -4.5 | O=C(NCCCN1CCCC1=O)c1ccc(Cl)c(Cl)c1 | 7 | -10%[15.4 µM]
2 | 0% | -4 | -3.2 | CC1Cc2ccccc2N1C(=O)CCS(=O)(=O)c1cccs1 (stereo not given) | -16 | 9%
-8 | -2% | nt | -3.6 | COc1ccc2nc(NC(=O)CCc3ccc(OC)c(OC)c3)sc2c1 | 2 | -15%
-29 | -7% | 1 | -0.5 | CCC(C)(C)NC(=O)C(c1ccc(C)o1)N(Cc1cccs1)C(=O)Cn1nnc2ccccc21 (stereo not given) | -6 | 19%
-10 | 2% | -5 | 1.2 | CC1CCN(c2ccccc2NC(=O)c2cc3ccccc3o2)CC1 | 12 | 9%
-1 | 18% | 0 | -2.8 | COc1cc(C(=O)Nc2sc(C(=O)N3CCOCC3)c(C)c2C#N)cc(OC)c1OC | 7 | 0%
-14 | 4% | 3 | -8.6 | O=CC(=O)c1ccccc1 | -3 | nt
0 | 0% | 2 | 8.5 | O=C(O)/C=C/c1ccc(O)c(O)c1 | 2 | nt
-22 | 3% | 0 | -3.4 | CCCCC(O)(CCCC)C(=O)NN(C(=O)OC)c1ccc(C)cc1 | 2 | 19%[15.4 µM]
-3 | -18% | 15 | -3.4 | CCOC(=O)c1ccccc1NC(=O)CN(c1ccccc1)S(=O)(=O)N(C)C | 2 | 2%
-1 | 1% | 0 | 8.9 | COc1ccc(C(=O)Nc2ccc3oc(-c4cccnc4)nc3c2)cc1OC | 19 | 4%
-12 | -6% | 0 | 3.0 | Fc1ccccc1Nc1n[nH]c(=S)s1 | -3 | 2%[15.4 µM]
2 | 12% | 0 | 0.6 | O=C(Oc1ccc(Cl)cc1)c1ccc(N2CCOCC2)c([N+](=O)[O-])c1 | -14 | -16%
-4 | -13% | 13 | -0.5 | O=C(OCCOc1ccccc1Cl)c1ccc(-n2cnnn2)cc1 | 4 | 23%

# Looked up above:
# In gsp antagonist, Fc1ccccc1Nc1n[nH]c(=S)s1 reads -6%
# In gsp ag, O=C(OCCOc1ccccc1Cl)c1ccc(-n2cnnn2)cc1 reads 23%

# Carrying on:
D2 PAM | gsp antagonist | CtBP-E1A inh | D2 agonist | compound | Six1-Eya2 blk | gsp ag
-1 | -19% | 2 | -1.8 | CCN(CC)S(=O)(=O)c1ccc(C(=O)Oc2ccc3c(c2)OCO3)cc1 | 5 | -10%
10 | -20% | 9 | 2.8 | Clc1cccc(-c2cc3nc4c(c(NCc5ccco5)n3n2)CCCC4)c1 | -2 | -5%
1 | -9% | 0 | -4.6 | Cc1ccc(NC(=S)NCCC2=CCCCC2)cc1 | 4 | 7%[15.4 µM]
-5 | -1% | -1 | 11 | Cc1cc(C(=O)COC(=O)c2ccc(NC(=O)CC#N)cc2)c(C)n1CCc1ccc(F)cc1 | -9 | -4%
2 | -5% | 7 | 14 | O=C(NC1CCCCC1)c1cc(C2CC2)nn1-c1ccccc1 | 4 | -24%
-3 | -40% | 6 | -0.9 | CC(C)C(=O)Nc1ccccc1C(=O)OCC(=O)c1ccc2c(c1)OCCO2 | 2 | 18%[15.4 µM]
-10 | ? | -8 | 1.2 | Cc1ccc(NC(=O)COc2ccc(C(=O)c3ccccc3)cc2)c(O)c1 | 1 | ?
-3 | 8% | 1 | -2.0 | CCCCc1nnc(NC(=O)CSc2nc(N)cc(=O)[nH]2)s1 | 9 | 10%
-7 | -1% | 61 | -2.8 | CCOC(=O)c1cc(CC)sc1NC(=O)Cc1ccsc1 | 44 | 3%
-12 | 0% | -12 | -0.6 | CN1CCCC1CCNc1ccc2oc3ccccc3c(=O)c2c1 (stereo not given) | -11 | nt
-3 | 9% | 3 | -3.4 | O=C1CSC(c2cccc([N+](=O)[O-])c2)N1c1ccc(O)cc1 (stereo not given) | 3 | 50%
10 | 8% | 7 | 0.2 | CCOC(=O)C1CCN(C(=O)CCCN2C(=O)c3ccccc3C2=O)CC1 | 7 | -6%
-7 | 3% | -20 | -4.1 | COc1cc(C#Cc2c(-c3cncn3C)n(C)c3ccc(-c4ccc(OC)c(OC)c4)cc23)cc(OC)c1 | -24 | 12%
-5 | ? | -7 | -0.2 | Cc1ccc(SCCC(=O)Nc2cccc(N(C)S(C)(=O)=O)c2)cc1 | 4 | -9%
7 | -9% | nt | -2.2 | COc1ccc(NC(=O)COC(=O)CCc2ccc(S(=O)(=O)N3CCOCC3)cc2)cc1OC | -2 | 24%
6 | -2% | nt | 6.5 | Cc1ccc(S(=O)(=O)/N=C/c2c(O)ccc3ccccc23)cc1 | 10 | 21%
-1 | -7% | -17 | 0.9 | CCOc1cc(/C=N/NC(=O)COc2cccc(C)c2)ccc1OC(=O)c1cccs1 | -13 | -10%
-13 | -1% | -28 | -2.2 | CC1CCN(CCCn2c(SCC(=O)Nc3ccccc3Cl)nc3ccccc3c2=O)CC1 | -19 | -44%[15.4 µM]
-5 | -19% | 6 | -0.5 | CCn1c(COc2ccc(=O)n(-c3ccccc3)n2)nnc1SCc1ccc(C)cc1 | 0 | -44%[inhibitor]
2 | 0% | 10 | -1.2 | Cc1ccc(OC(=O)COc2ccccc2C)cc1 | 1 | -10%
-3 | 6% | 5 | -4.4 | Cn1ccnc1SCC(=O)c1ccc(F)cc1 | -4 | -11%
-8 | 6% | 0 | -2.5 | Cc1ccc(-c2nnn(CC(=O)N(CC3CCCO3)C(C(=O)NC(C)(C)C)c3ccc(F)cc3)n2)o1 (stereo not given) | 3 | 0%
